Bioassay records: PubChem, several laboratories
T cruzi repl: T. cruzi replication inhibition | T. cruzi beta-gal in NIH3T3, luminescence, 90 h | inhibition, % (no concentration beside the values) | hit rate 1.4% among 300,000 | AID 1885;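 active means mean inhibition across valid replicates above about 55%, limit read from the data; inconclusive means mean below that limit but half or more replicates reach it; inactive means mean below it, under half of replicates reach it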;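 further: signal also drops with host cell toxicity which is not excluded here; 0% = plate median of DMSO wells and 100% = zero luminescence signal; higher percent means less beta-gal luminescence so fewer parasites; stock transfer was 50 nL into about 50 µL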
A1 inh: inhibitors of the anti-apoptotic protein A1, read as caspase activation; MEF A1-2A-BIM cells, Caspase-Glo 3/7 luminescence, 3 h; percent of clofoctol response, vehicle zero; caspase activation, % (test concentration not listed); hit rate 0.066% among 330,000;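 active means over half of replicate activation scores above 10%, or exactly half above 10 with the replicate mean above 10; inconclusive means replicate mean below 10 yet half the replicates above 10; inactive means over half of replicates below 10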;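 further: wells of about 30 µL received 50 nL stock; many hits fall short of the cut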
UCH37 DUB inh: blocks the human deubiquitinase UCH37 | hit rate 0.33% among 330,000 | inhibition, % (concentration not given with the values) | AID 588478 | purified proteasome/UCH37, Ub-AMC cleavage fluorescence;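 active means mean of two replicates above 20%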;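 further: 0% = compound-free wells with enzyme and 100% = wells lacking proteasome; stock transfer was 100 nL into about 20 µL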
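System: Proteasome-associated human UCH37 deubiquitinase; Input: 0.15 nM proteasome in added enzyme buffer; Also added: Ub-AMC substrate from 1 µM stock; Incubation: 30 min compound-proteasome preincubation then 25 min substrate reaction, room temperature; Detection: fluorescence, ex 355 nm, em 460 nm; Read-out: % inhibition of Ub-AMC cleavage fluorescence; Benchmarks: no-proteasome and no-compound wells.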
B2AR ag: activates human beta-2 adrenergic receptor causing internalization; P07550; Am2.2-beta2AR cells, FAP receptor internalization, flow cytometry; reference of the scale not given here; response, % (test concentration not listed); hit rate 0.43% among 340,000; AID 504454;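 active means response above a set limit, near 3 SD of response in nonfluorescent compounds, cut at about 42% in these data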;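 further: stock transfer was 100 nL into about 11 µL; a reference agonist was the positive control; negative values mostly stem from fluorescent compounds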
LANA-H2A inh: blocks KSHV LANA binding to histone H2A/H2B; hit rate 0.6% among 320,000; inhibition, % (test concentration not listed); cell-free LANA-H2A/H2B peptide, fluorescence polarization; AID 2629; Q9QR71; in the data active means inhibition mostly above about 10%, no sharp cut-off; inactive means mostly below about 6.7%;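 further: stock transfer was 7.5 nL into about 10 µL; 0% = median of vehicle wells and 100% = median of positive control wells; one replicate is shown; the record names a cut of 25% in any replicate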
Target sequence (Q9QR71 whole entry, looked up): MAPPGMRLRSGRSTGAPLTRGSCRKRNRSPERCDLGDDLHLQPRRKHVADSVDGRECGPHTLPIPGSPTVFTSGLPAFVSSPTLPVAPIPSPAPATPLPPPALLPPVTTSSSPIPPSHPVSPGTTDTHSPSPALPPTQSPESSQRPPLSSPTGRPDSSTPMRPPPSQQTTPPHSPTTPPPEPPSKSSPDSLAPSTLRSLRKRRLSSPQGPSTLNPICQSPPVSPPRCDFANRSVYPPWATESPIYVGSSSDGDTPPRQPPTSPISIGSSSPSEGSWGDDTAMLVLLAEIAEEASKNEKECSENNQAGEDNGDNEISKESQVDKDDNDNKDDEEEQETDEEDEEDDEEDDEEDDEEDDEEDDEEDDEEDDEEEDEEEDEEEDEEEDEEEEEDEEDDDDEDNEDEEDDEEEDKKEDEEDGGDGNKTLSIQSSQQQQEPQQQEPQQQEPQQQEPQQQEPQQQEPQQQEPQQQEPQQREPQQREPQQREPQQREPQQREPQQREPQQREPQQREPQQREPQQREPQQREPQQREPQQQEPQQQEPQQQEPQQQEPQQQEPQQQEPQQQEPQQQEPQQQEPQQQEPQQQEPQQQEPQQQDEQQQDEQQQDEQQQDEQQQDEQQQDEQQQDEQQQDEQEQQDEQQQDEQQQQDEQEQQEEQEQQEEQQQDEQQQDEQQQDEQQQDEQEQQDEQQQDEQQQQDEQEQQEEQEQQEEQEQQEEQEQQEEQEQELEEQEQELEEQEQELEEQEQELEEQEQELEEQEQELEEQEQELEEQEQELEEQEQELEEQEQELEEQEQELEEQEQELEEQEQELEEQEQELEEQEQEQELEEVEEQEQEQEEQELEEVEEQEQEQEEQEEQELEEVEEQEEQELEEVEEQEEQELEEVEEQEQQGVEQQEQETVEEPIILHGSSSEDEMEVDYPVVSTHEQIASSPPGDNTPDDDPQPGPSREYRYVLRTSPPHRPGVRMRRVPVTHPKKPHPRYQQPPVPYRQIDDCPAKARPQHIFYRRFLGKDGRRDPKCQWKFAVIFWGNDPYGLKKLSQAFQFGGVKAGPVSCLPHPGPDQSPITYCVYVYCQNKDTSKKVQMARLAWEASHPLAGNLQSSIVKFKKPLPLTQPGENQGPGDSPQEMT
RanGTP-Imp inh: inhibitors of RanGTP-importin-beta interaction, primary screen, biochemical, FRET, CFP-Ran, YFP-importin-beta, homogeneous; inhibition, % (test concentration not listed); AID 2216; hit rate 1.1% among 300,000; cell-free CFP-Ran/YFP-importin-beta FRET ratio;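 active means most replicates above 15%; inconclusive means exactly half above 15%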;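 further: 0% = DMSO wells and 100% = Ran loaded with GDP instead of GTP; wells of about 40 µL received 100 nL stock; the first replicate is given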
Beta apoptosis: beta cell apoptosis inhibition; INS-1E cytokine-induced death, ATP luminescence, 48 h; percent of positive-control rescue, neutral wells zero; protection from apoptosis, % (test concentration not listed); hit rate 0.8% among 300,000;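 active means all replicates at 75% or more, or half of them and the mean; inconclusive means half reach 75% but not the mean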;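 further: 0% = cytokine-treated negative control wells and 100% = positive control rescue; higher means more ATP so stronger rescue from cytokine killing; wells of about 40 µL received 100 nL stock; the first replicate is given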
Calb FLC: affects C. albicans growth with fluconazole | C. albicans CaCi-2 (fluconazole-resistant clinical isolate) + fluconazole, Alamar Blue growth, 48 h | growth inhibition, % (no concentration beside the values) | hit rate 0.57% among 300,000 | AID 1979;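 active means most replicates above 75%; inconclusive means exactly half above 75%; inactive means most below 75%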;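 further: all wells also contain fluconazole at 8 µg/ml as a sub-toxic cotreatment; 0% = median of DMSO wells and 100% = median of geldanamycin control wells; wells of about 8 µL received 7.5 nL stock; the first replicate is given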
* marks the source's active call; other numbers are inactive results; ? = inconclusive; . = not tested or not shown.

SMILES	T cruzi repl	A1 inh	UCH37 DUB inh	B2AR ag	LANA-H2A inh	RanGTP-Imp inh	Beta apoptosis	Calb FLC
CC(=O)c1ccc(S(=O)(=O)NCCC(=O)OC(C)C(=O)Nc2ccc(F)cc2)cc1 (configuration not stated)	-4	0.3	2.0	7	1.5	-1.7	1	-4
O=C(Cc1ccccc1)NC(NNc1ccccc1)(C(F)(F)F)C(F)(F)F	-1	-0.7	0.3	4	-4.5	0.9	-3	-2
NC(=O)COC(=O)CC1CC2CCC1C2 (configuration not stated)	-5	0.2	3.7	8	-2.0	5.3	2	-3
CC(=O)Nc1cccc(C(=O)N2CCN(Cc3ccccc3)CC2)c1	-1	0.8	-0.1	-3	-1.4	-0.9	5	2
COc1cccc(CNC(=S)Nc2cc(C)ccc2C)c1	20	1.0	3.9	3	0.5	-1.6	-3	30
Cn1c(CNC(=O)c2ccc3c(c2)OCO3)nnc1SCC(=O)Nc1ccccc1Cl	-5	0.3	0.7	0	-1.8	0.6	-1	-6
O=C(N/C(=C/c1ccco1)C(=O)N1CCOCC1)c1ccc([N+](=O)[O-])cc1	5	.	7.0	-9	.	1.5	.	-15
O=C(CSc1nnc(-c2ccc([N+](=O)[O-])cc2)o1)Nc1ccccn1	11	-0.8	5.1	-1	2.7	-0.3	-5	-7
CC(C)OC(=O)CCC(=O)Nc1nc2ccccc2s1	10	-0.4	2.9	-3	14	0.6	-7	13
CCOc1ccc(NS(=O)(=O)c2ccc(C(=O)NC3CCC(O)CC3)cc2)cc1 (configuration not stated)	-10	1.8	3.6	-2	-0.3	0.2	.	-4
COc1ccc(N=Cc2c(O)cc(C)oc2=O)cc1	-18	0.8	4.5	-2	4.1	-3.3	2	4
COc1ccccc1NC(=O)c1nnn(CC(=O)Nc2ccccc2)c1N	14	-0.8	-4.5	-8	1.5	-0.6	2	-2
CC12CCC(=O)N1C(C(=O)N1CCN(S(=O)(=O)c3ccc(F)c(F)c3)CC1)CS2 (configuration not stated)	-7	0.7	3.6	0	-0.8	?	-7	3
Cc1ccc2cc3c(N)c(C(=O)Nc4c(C)[nH]c(=O)[nH]c4=O)sc3nc2c1	-21	1.4	.	-15	-0.1	3.2	-8	40
CCCNC(=O)c1csc(Nc2cccc3ccccc23)n1	1	-0.4	-0.3	2	-7.8	1.5	-2	16
C/C(CC(=O)Nc1ccc(Cl)cc1)=N\NC(=O)C(=O)N1CCCCC1	.	0.1	.	-2	5.3	.	-5	-5
Cc1ccccc1-c1nc2ccccc2c(=O)n1/N=C/c1ccc([N+](=O)[O-])cc1	-1	-0.6	.	-3	0.5	2.4	0	-12
C=CC[C@H](CC(=O)N(CCO)Cc1ccccc1)C(=O)NC[C@@H](OC(=O)[C@@H](CC=C)Cc1ccc(F)cc1)c1ccccc1	.	1.1	5.7	15	1.9	.	2	.
Cc1ccc(S(=O)(=O)N(CC(=O)Nc2ccc(C(N)=O)cc2)C(=O)N2CCN(C)CC2)cc1	-12	-0.2	1.5	-7	3.2	2.4	1	0
CCc1cc[n+](C2=C([O-])c3ccccc3C(=O)/C2=N\S(=O)(=O)c2cccs2)cc1	0	0.0	57*	-3	4.4	-3.3	106*	-7
O=C(CSc1ccc(-c2cccnc2)nn1)N1CCCC1	-6	-0.6	1.5	-9	-1.8	3.7	-4	8
CCCCc1cc(O)c(CCCC)c(O)c1	31	0.2	6.5	10	-1.5	5.7	19	-28
O=C(NCc1ccco1)c1c(O)c2cccc3c2n(c1=O)CCC3	-8	-0.5	-1.3	-2	4.5	3.3	-8	-5
N#CC1=C(N)N(c2ncn[nH]2)C2=C(C(=O)CCC2)C1c1ccccc1 (configuration not stated)	-15	-0.2	5.1	6	-1.7	-1.4	1	6
Cc1ccc(NC(=O)CCOc2ccccc2C)cc1C	-9	-0.3	-0.9	-21	-2.1	0.8	-10	-1
Cc1cc(C(=O)Nc2ccccc2N2CCOCC2)c(C)o1	.	-0.1	0.6	-1	2.2	-0.5	-8	-9
Cc1ccc(-c2nc3ncccc3o2)cc1NC(=S)NC(=O)c1ccco1	-6	0.2	4.0	32	-4.5	3.3	7	13
Cc1ccc(C(=O)CC(C(=O)O)P(=O)(c2ccccc2)c2ccccc2)cc1 (configuration not stated)	6	-0.8	.	8	1.9	1.8	-8	18
O=C(Nc1ccc2c(c1)OCO2)N1CCN(c2ncccn2)CC1	-10	-0.8	1.2	-1	-0.8	9.5	1	-1
CCOc1ccc(C(C(=O)NC2CCCCC2)N(C(=O)c2ccco2)c2ccc(-n3cnnn3)c(C)c2)cc1 (configuration not stated)	6	-0.6	-2.9	6	-0.2	8.9	3	17
C#CCOC(=O)CCCC(=O)Nc1ccccc1OC	-8	-0.3	-1.7	-3	2.7	4.0	-1	-9
CCN(CC)c1ccc(NC(=O)/C=C/c2cc(Br)ccc2OC)cc1	47	-0.2	-4.9	6	-0.5	-3.9	5	-1
Cc1cc(NC(=O)CN(C)CCOc2ccccc2)ccc1Br	3	1.3	0.8	5	-5.8	-0.6	-4	-38
CCOc1ccc(S(=O)(=O)N2CCCCC2)cc1NC(=O)CC1OC(=O)c2ccccc21 (configuration not stated)	-2	0.4	7.0	-3	-3.0	0.8	.	-13
COC(=O)c1cn(NC(=O)c2cc([N+](=O)[O-])ccc2F)c(=O)c2ccccc12	40	0.4	.	3	-2.5	-0.1	-21	28
COc1ccc(C(CCN2CCCC(C)C2)c2c(OC)cc(OC)c3c(-c4ccccc4)cc(=O)oc23)cc1 (configuration not stated)	45	0.0	-0.3	20	-1.4	?	51	-14
CN(C)c1ccc(C(=O)OCC(=O)NCC2CCCO2)cc1 (configuration not stated)	-6	0.5	10	-6	-2.6	-2.7	-1	-4
COc1ccc(NC(=S)NCCc2ccc(S(N)(=O)=O)cc2)c(OC)c1	-5	0.4	0.4	16	-1.4	-1.5	-9	-1
O=C(NCC(c1ccco1)N1CCCC1)c1cc2ccccc2s1 (configuration not stated)	.	1.3	0.1	-3	2.6	.	-4	.
O=C(Nc1cccc(C(=O)O)c1)/C(=C\c1ccc2c(c1)OCO2)NC(=O)c1ccc(Br)o1	-2	0.3	11	6	-0.1	1.5	-3	0
CC(=O)Nc1ccc(C(=O)/C=C/c2ccc[nH]2)cc1	-4	1.1	3.2	10	-4.0	17*	.	-10
OCc1nnc2c3ccccc3c(-c3ccccc3)nn12	-15	-0.5	-0.5	-19	5.1	2.4	6	-3
O=C(CN1CCCCC1)N/N=C/c1ccccc1Br	-14	-0.7	.	-4	-4.7	3.2	1	-7
Nc1[nH]n2c(=O)c3c(nc2c1N=Nc1ccc(Cl)cc1)CCCC3	42	1.1	13	3	1.9	-14	-1	14
Nc1ncc(Br)cc1S(=O)(=O)NCCC(=O)NCc1ccc(F)cc1	-5	0.2	0.9	-4	2.7	4.1	-6	-6
O=Cc1ccccc1OCCN1CCCC1=O	-6	0.9	-3.9	-5	0.5	1.6	-1	-6
COc1ccc(CC(=O)NCC(=O)N/N=C/c2sccc2C)cc1	-7	-0.9	.	-3	-0.6	1.9	-5	-5
O=C(NC1CCCCC1)C1CC(=O)N(c2cccc([N+](=O)[O-])c2)C1 (configuration not stated)	-4	1.6	4.2	2	4.6	1.6	-1	11
CC(C)CN(C(=O)CSc1n[nH]c(-c2cccs2)n1)C1CCS(=O)(=O)C1 (configuration not stated)	.	-0.3	-18	-5	-11	.	-3	.
Cc1ccc2c(c1)/C(=C/c1ccccc1)C(=O)N2	-6	0.3	6.6	12	1.7	4.1	8	6
NC(CO)C(=O)NNCc1ccc(O)c(O)c1O (configuration not stated)	-8	0.6	7.2	7	-11	5.8	-6	.
Cc1c(C(=O)N2CCOCC2)oc2ccccc12	.	-1.5	0.4	0	-1.5	.	-2	.
CCN(CC)CCn1c2c(c(SCC(=O)Nc3ccccc3Cl)nc1=O)CCCC2	18	0.0	3.5	-1	0.2	-0.5	-12	-9
Cn1c(CNC(=O)c2ccc(Cl)cc2)nnc1SCC(=O)Nc1sc2c(c1C#N)CCCC2	2	0.6	0.0	-5	1.1	-3.7	6	-24
COc1ccc(NC(=O)Nc2cccc3ccccc23)c(OC)c1	-4	1.1	3.0	3	4.7	-2.7	-2	-2
COc1cccc(CNCc2cccc(Br)c2)c1OC	-7	-0.3	0.6	-2	4.1	3.5	0	-10
CCOC(=O)c1cnc2ccc(C)cc2c1Sc1ccc(F)cc1	2	0.2	5.9	10	0.6	-3.5	-12	0
FC(F)(F)c1cccc(N2CCC(N=CN3CCCCCC3)=N2)c1	35	1.0	5.6	1	-1.1	-0.7	-9	?
Cc1cccc(OCC(=O)N2CCC3(CC2)CC(=O)c2ccccc2O3)c1	0	0.9	-27	9	0.1	0.1	-1	6
CCCCS(=O)(=O)Nc1ccc(Cc2ccncc2)cc1	7	-0.5	0.8	-14	4.4	1.7	-8	3
Additional compounds follow.
SMILES	T cruzi repl	A1 inh	UCH37 DUB inh	B2AR ag	LANA-H2A inh	RanGTP-Imp inh	Beta apoptosis	Calb FLC
CCS(=O)(=O)N1CCc2nc(-c3ccccc3)sc2C1	-13	-6.4	0.9	-7	2.1	2.0	-4	3
CC(=O)c1cn(-c2ccc(Cl)cc2)c(=O)n(Cc2ccc(F)cc2)c1=O	-7	0.6	1.1	-6	2.1	5.1	14	15
COc1cccc(/C=N/NC(=O)c2cccs2)c1	6	-7.0	.	0	0.3	2.7	4	-1
CC(=O)c1ccc(NC(=O)Nc2ccc([N+](=O)[O-])cc2C)cc1	-37	0.4	2.7	13	1.9	-0.1	-1	-6
CC(OC(=O)CCCC(=O)Nc1ccc(F)cc1)C(=O)c1ccccc1 (configuration not stated)	-9	-0.1	0.0	-15	-2.9	2.7	-2	-4
CCCCn1c(N)c(N(CCC(C)C)C(=O)CSc2nnc(C)s2)c(=O)[nH]c1=O	-3	-0.1	3.4	-5	-4.9	-4.9	4	-15
Cc1ccccc1C(=O)NNC(=O)Cc1ccccc1	-23	0.4	2.3	1	1.9	?	1	-2
COc1ccccc1NC(=O)C1CCC(CNc2c(N3CCCCC3)c(=O)c2=O)CC1 (configuration not stated)	19	-0.3	3.8	-5	0.9	3.2	3	-6
O=C(c1nnc(-c2ccncc2)o1)c1ccccc1Cl	-15	-1.7	1.0	0	2.0	1.6	-4	-9
Clc1ccc(-c2nnc(SCc3nc4ccccc4s3)o2)cc1	3	0.8	-4.4	2	-1.6	-1.3	-4	-8
CC(=O)N1CCc2cc(S(=O)(=O)NCCCOC(C)C)ccc21	12	0.5	5.5	0	1.1	-2.0	-3	15
CCOC(=O)N1CCN(C(=O)c2ccc(Oc3ccc([N+](=O)[O-])cc3)cc2)CC1	-2	0.0	3.5	-20	0.0	-1.1	-4	-10
COc1ccc(NC(=S)NCc2ccc(S(N)(=O)=O)cc2)cc1OC	1	-0.8	-0.6	-4	0.4	4.7	8	1
